PV pol inh: poliovirus RdRp elongation inhibitors, primary screen, biochemical, fluorescence polarization, total intensity; Genome polyprotein (Poliovirus type 1 (strain Mahoney)), P03300; poliovirus polymerase elongation; active compounds read low; % elongation, % (compound at 16.7 µg/mL); 150,000 tested, 0.66% active; AID 588519, 2011; in the data active = % elongation below about 90%; note: some results filed as inactive read as strong as hits
MenB inh: M. tuberculosis MenB inhibitors, primary screen, biochemical, absorbance; 100,000 tested, 0.43% active; inhibition, %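 (about 12 µg/mL by stock and volumes)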; MenB enzyme assay, absorbance read-out; some hits fall short of the stated cut; AID 540299, 2011;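 active = mean of two replicates above 30%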;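 note: 0% = no compound and 100% = wells with inactive enzyme; the first replicate is given; strong numbers were not always called active; inactives centre near -10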
Target sequence (P9WNP5 whole entry, looked up): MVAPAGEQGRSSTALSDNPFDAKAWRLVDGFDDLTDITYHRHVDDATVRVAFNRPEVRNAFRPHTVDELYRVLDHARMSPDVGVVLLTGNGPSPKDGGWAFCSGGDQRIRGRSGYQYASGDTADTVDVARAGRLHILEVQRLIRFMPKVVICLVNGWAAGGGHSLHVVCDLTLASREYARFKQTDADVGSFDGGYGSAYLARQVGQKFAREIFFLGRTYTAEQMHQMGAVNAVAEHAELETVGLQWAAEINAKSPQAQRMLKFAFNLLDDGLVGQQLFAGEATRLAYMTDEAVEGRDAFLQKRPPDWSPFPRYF
Mtb MbtI inh: MbtI salicylate synthase inhibitors, primary screen, biochemical, fluorescence intensity. inhibition, %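 (about 17 µg/mL by stock and volumes)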. 100,000 tested, 0.89% active. purified MbtI enzyme, fluorescence intensity read-out. P9WFX0;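 active = above 50% in both replicates, above 80% if mildly self-fluorescent; inactive = the rest, strongly fluorescent compounds included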;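 note: 0% = mean of negative and 100% = mean of positive controls; one replicate is shown; some compounds called inactive have numbers as strong as hits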
Target sequence (P9WFX0 whole entry, looked up): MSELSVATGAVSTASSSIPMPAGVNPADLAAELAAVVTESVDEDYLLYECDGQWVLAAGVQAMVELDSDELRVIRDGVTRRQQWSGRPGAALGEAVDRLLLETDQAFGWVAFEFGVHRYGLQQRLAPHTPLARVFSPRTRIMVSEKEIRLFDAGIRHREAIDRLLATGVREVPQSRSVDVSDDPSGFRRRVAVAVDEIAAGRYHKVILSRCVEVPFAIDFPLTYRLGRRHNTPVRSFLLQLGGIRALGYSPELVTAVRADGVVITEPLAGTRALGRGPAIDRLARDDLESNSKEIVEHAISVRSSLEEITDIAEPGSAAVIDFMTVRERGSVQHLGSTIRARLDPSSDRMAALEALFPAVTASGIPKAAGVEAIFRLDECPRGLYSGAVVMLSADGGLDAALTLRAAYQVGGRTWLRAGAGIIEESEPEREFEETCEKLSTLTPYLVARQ
PV pol inh intensity: second read-out of PV pol inh, no call of its own (marks repeat the call); % elongation; measured here: total intensity read-out; formula for this scale not given here;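 total fluorescence in place of polarization; lower means less elongation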
Starred values were filed as active, the others as inactive; . = not tested or not shown; & = joins results of further samples. No enrichment for hits; overall some 1.9% were active at least once.

Start of the data: the first two compounds as a preview:
SMILES | PV pol inh | PV pol inh intensity | MenB inh | Mtb MbtI inh
Oc1oc(-c2ccccc2)nc1/C=C1\C=Nc2ccccc21 | 150 | 201 | -66 | .
O=C1CCC(C(=O)Nc2nc(SCc3ccc(Cl)cc3)n[nH]2)=NN1 | 100 | 104 | -11 | 11

All compounds of this part, previewed entries included:
SMILES | PV pol inh | PV pol inh intensity | MenB inh | Mtb MbtI inh
Oc1oc(-c2ccccc2)nc1/C=C1\C=Nc2ccccc21 | 150 | 201 | -66 | .
O=C1CCC(C(=O)Nc2nc(SCc3ccc(Cl)cc3)n[nH]2)=NN1 | 100 | 104 | -11 | 11
CC(=O)NCc1ccc(C(=O)CSc2nnc3sc4ccccc4n23)o1 | 96 | 101 | -1 | 21
O=C(O)CC1NC(=O)N(C2CCCCC2)C1=O (stereo not given) | 100 | 100 | -4 | 0
CCN1C(=O)C(=C2SC3CS(=O)(=O)CC3S2)SC1=S (stereo not given) | 98 | 108 | -2 | 11
CCn1c(=O)c2c(nc3n2CCCN3c2ccccc2)n(C)c1=O | 101 | 102 | 2 | -1
N#Cc1nncn1-c1ncnc2scc(-c3ccc(Cl)cc3)c12 | 106 | 100 | -23 | -4
COc1ccc(N2C(=O)CC(Sc3nc4ccccc4c(=O)n3CCO)C2=O)cc1 (stereo not given) | 107 | 105 | -15 | 100
CN(C(=O)Cn1nc(Cc2ccncc2)c2ccccc2c1=O)c1ccccc1 | 101 | 106 | -8 | -9
CCOc1ccccc1NC(=O)C(C)Sc1ccccc1 (stereo not given) | 101 | 102 | -21 | -4

Compounds shown so far that have a halogen (2):
SMILES | PV pol inh | PV pol inh intensity | MenB inh | Mtb MbtI inh
O=C1CCC(C(=O)Nc2nc(SCc3ccc(Cl)cc3)n[nH]2)=NN1 | 100 | 104 | -11 | 11
N#Cc1nncn1-c1ncnc2scc(-c3ccc(Cl)cc3)c12 | 106 | 100 | -23 | -4

(next part)
SMILES | PV pol inh | PV pol inh intensity | MenB inh | Mtb MbtI inh
Cc1onc(-c2ccccc2)c1C(=O)OCC(=O)c1ccc2[nH]c(=O)[nH]c2c1 | 76* | 77* | -18 | 2
CC(C)CCNC(=O)C1CCCN(c2nc3ccccc3o2)C1 (stereo not given) | 102 | 102 | -8 | -9
CCn1c(-c2ccc(C)cc2)cnc1SCC(=O)N1CCN(C(C)=O)CC1 | 103 | 108 | -15 | 9
O=c1oc2ccccc2c(O)c1Cc1cc(Cl)c2cccnc2c1O | 112 | 141 | -28 | -92
CN(C)c1ccc(N=Cc2ccccc2)cc1 | 104 | 97 | -27 | 11
CC(C)(C)c1cc(CCC(=O)NCCN)cc(C(C)(C)C)c1O | 104 | 99 | -11 | .
N#CC1=C(N)N=C(SCC(=O)Nc2ccccc2)C(C(N)=O)C12CCCCC2 (stereo not given) | 106 | 109 | -45 | .
CCOCC(=O)Nc1c(C(=O)Nc2cccc(OC)c2)oc2ccccc12 | 101 | 105 | -7 | 48
C=CCC(O)(CC=C)C(N)Cc1ccccc1 (stereo not given) | 106 | 111 | 6 | .
Cc1ccc(C2Nc3ccccc3C(=O)N2CCN2CCNC2=O)cc1 (stereo not given) | 102 | 96 | 5 | 102
COC(=O)c1cccc(NC(=O)/C=C/c2ccco2)c1C | 100 | 101 | -31 | 24
CCn1c(SCC(N)=O)nnc1C1CCCC1 | 101 | 102 | -26 | -1
O=C(Cn1cc(C(F)(F)F)ccc1=O)N/N=C/c1ccccn1 | 102 | 102 | -38 | 22
CN(C)C1CS(=O)(=O)CC1N(C)C (stereo not given) | 101 | 98 | 7 | 1
Cc1cccn2c(=O)c(C(=O)NC3CCCCC3C)c(O)nc12 (stereo not given) | 100 | 106 | 0 | 103
N#CCCCSc1ncnc2scc(-c3ccccc3)c12 | 125 | 135 | 10 | 2
CCN(CC)c1ccc(-c2nnc(SC(C)C)n2C)cc1 | 99 | 104 | -4 | -18
NS(=O)(=O)c1cc(Cl)ccc1Cl | 101 | 105 | . | -1
O=S(=O)(NCC1CCN(Cc2ccc(Cl)cc2)CC1)c1cnc[nH]1 | 103 | 101 | -1 | -21
Cn1nnc(NC(=S)NC(=O)Cc2ccccc2)n1 | 102 | 105 | 6 | 16
O=S(=O)(c1cccs1)N(Cc1ccccc1)Cc1ccccc1 | 101 | 101 | -21 | -7
COc1cc(C#N)ccc1OCC(=O)Nc1ccc(C)cc1C | 101 | 103 | -10 | -11
O=C(NCc1ccccc1)c1ccc(-n2c(-c3ccccc3)cc3c2CCCC3)cc1 | 103 | 109 | -15 | 112
C=CCNC(=O)N1c2ccccc2Sc2ccccc21 | 102 | 100 | -13 | -11
Cc1cnc(NC(=O)c2cn(-c3ccccc3)nc2-c2cccnc2)s1 | 106 | 112 | -10 | -12
Clc1ccc(CSc2ncccn2)cc1 | 103 | 108 | -1 | 20
CN(c1ccccc1N(C)S(=O)(=O)c1ccccc1)S(=O)(=O)c1ccccc1 | 106 | 106 | -23 | .
C#CCn1c(=NC(=O)COc2ccccc2)sc2cc(S(N)(=O)=O)ccc21 | 101 | 101 | -7 | 2
CS(=O)(=O)c1ccc2nnn(OCC(=O)Nc3cccc(C#N)c3)c2c1 | 99 | 96 | 3 | -3
COC(=O)Cn1c(C(=O)OC)cc2c1ccn2C | 103 | 101 | 33* | 24
CC1CCCC/C1=N/NC(=O)Cn1ccc(C(F)(F)F)n1 (stereo not given) | 99 | 105 | -18 | -14
CC(C)CNC(=O)c1cc2ccccc2oc1=O | 107 | 105 | 6 | 66
O=C(Cn1c(=O)c2ccccc2n2nncc12)Nc1ccccc1C(F)(F)F | 101 | 102 | -5 | 1
O=C(CC1NC2CCCCC2NC1=O)NCc1ccccc1 (stereo not given) | 102 | 110 | -4 | -4
N#Cc1c(N)n(CCC2=CCCCC2)c2nc3ccccc3nc12 | 106 | 114 | -40 | 39
O=C(/C=C/c1ccccc1)OCC(=O)N1CCCC1 | 102 | 109 | -3 | 12
CCc1ccc(NC(=O)C(C)OC(=O)c2cnc(Cl)c(Cl)c2)cc1 (stereo not given) | 104 | 102 | . | -5
CCCN1C(=O)C(C#N)=C(C)/C(=C\c2ccc(-c3ccc(Cl)cc3)o2)C1=O | 102 | 108 | -23 | 40
COC(=O)C1=NNC2(c3ccc(C)cc3)C(=O)N(c3ccc(C)cc3)C(=O)C12 (stereo not given) | 102 | 101 | 36* | -12
O=C1CCCN2N=C(SCC(=O)N3CCCC3)SC2=N1 | 101 | 101 | -8 | 16
COc1ccc(C(=O)N=S2CCN(C(=O)c3ccc(Cl)cc3)CC2)cc1 | 101 | 95 | -10 | 2
COc1ccccc1NC(=O)Cc1noc(COC(=O)c2ccc(C(F)(F)F)cc2)n1 | 101 | 94 | -23 | -21
Cc1ccc2nc(N3CCc4ccccc43)c3nncn3c2c1 | 101 | 103 | -3 | 7
CN(C)S(=O)(=O)c1ccc(S(=O)(=O)N2CCC(c3nc4ccccc4s3)CC2)cc1 | 102 | 101 | 29* | 2
CCc1cccc(NS(=O)(=O)c2c(C)n[nH]c2C)c1 | 100 | 102 | 5 | 0
C=CCNC(=O)C1CCN(S(=O)(=O)c2ccccc2C(F)(F)F)CC1 | 96 | 101 | -3 | 10
CC1(C)CC2CC(C)(CN2C(=O)COC(=O)C2=NNC(=O)CC2)C1 (stereo not given) | 104 | 100 | -5 | -5
CC(=O)Nc1c(C)cc(C(O)(C(F)(F)F)C(F)(F)F)cc1C | 100 | 101 | -15 | -4
Cc1ccccc1-n1c(SCc2c(C)noc2C)nnc1-c1ccncc1 | 116 | 135 | -11 | 3
C=CCC(c1ccccc1)N(C(C)=O)c1ccco1 (stereo not given) | 99 | 102 | 22 | 4

The results go on.
SMILES | PV pol inh | PV pol inh intensity | MenB inh | Mtb MbtI inh
O=C(Cn1cnc2ccccc2c1=O)NCc1ccccc1 | 103 | 101 | -23 | -9
O=C(Nc1ccccc1)c1cc([N+](=O)[O-])ccc1Cl | 98&99 | 101&100 | 8 | 7
CC12CS(=O)(=O)CC1SC(=S)N2c1ccccn1 (stereo not given) | 107 | 104 | -7 | 10
Cc1cc(NC(=O)C(C)Sc2nc(-c3ccccc3)cc(=O)[nH]2)no1 (stereo not given) | 100 | 99 | -14 | -12
Cc1ccc(-n2nc3c(c2NC(=O)CCC2CCCCC2)CSC3)cc1 | 102 | 97 | -13 | 16
O=C(NN1CCOCC1)c1ccco1 | 101 | 106 | -15 | 9
O=C(O)c1sc2cc(F)ccc2c1Cl | 101 | 107 | 7 | .
c1ccc(-n2nnnc2-c2cnoc2-c2cccs2)cc1 | 103 | 106 | -20 | -9
CN(Cc1ccccc1)C(=O)COC(=O)c1ccc(-n2cnnn2)cc1 | 106 | 108 | -11 | -15
Cc1cc(OCCN)c(C(C)C)cc1Cl | 100 | 101 | -11 | 6

Continued, starting with the last two of the part before.
SMILES | PV pol inh | PV pol inh intensity | MenB inh | Mtb MbtI inh
CN(Cc1ccccc1)C(=O)COC(=O)c1ccc(-n2cnnn2)cc1 | 106 | 108 | -11 | -15
Cc1cc(OCCN)c(C(C)C)cc1Cl | 100 | 101 | -11 | 6
CNC(=O)c1ncoc1-c1ccc(Cl)cc1 | 101 | 94 | -6 | 21
Cc1cc(C(=O)COc2ccc(-c3ccc(C#N)cc3)cc2)c(C)n1C | 101 | 105 | -9 | 134
Cn1cc(-c2csc(N)n2)cn1 | 101 | 102 | 34 | 35
COc1ccc(Cc2nn3c(Cn4cnc5ccccc54)nnc3s2)cc1 | 100 | 100 | -40 | 99*
Cn1cnnc1S/C=C/C(=O)c1ccc(Cl)cc1 | 102 | 102 | -10 | 85*
CC(C)NC(=O)C(C)SCc1ccccc1 (stereo not given) | 98 | 102 | -12 | -7
O=C1CCCN=C(N(C(=O)c2ccco2)c2ccc(F)cc2F)S1 | 101 | 97 | 3 | 3
CC1(C)CC(N=C=S)CCO1 (stereo not given) | 102 | 99 | -12 | 75
CS(=O)(=O)c1cccc(S(=O)(=O)NC2CCCCC2)c1 | 104 | 99 | -14 | -5
O=C(CCc1nc2cc(C(F)(F)F)ccc2n(Cc2ccccc2)c1=O)NCc1ccco1 | 109 | 112 | -14 | 0
O=S(=O)(c1ccccc1)N1CCC2(CC1)OCCN2S(=O)(=O)c1ccccc1 | 95 | 95 | 6 | 0
c1ccc2cc(CNCCc3ccc4c(c3)OCO4)ccc2c1 | 98 | 90 | -12 | .
O=C(Cn1c(=O)n(Cc2ccc3c(c2)OCO3)c(=O)c2ccc(C(=O)NC3CCCCC3)cc21)NCc1ccco1 | 103 | 102 | -26 | -6
CCCCCC1OC1C/C=C\C/C=C\C/C=C\CCCC(=O)O (stereo not given) | 99&98 | 104&103 | 6 | -11
CC1=CC(C)C2COC(c3ccc(OC(=O)NC4CCCCC4)cc3)C1C2C (stereo not given) | 100 | 99 | -2 | .
CCC(=O)c1ccc(OC(=O)N(C)c2ccccc2)cc1 | 101 | 106 | 0 | 1
O=C1NC(c2ccc(C(F)(F)F)cc2)=CCN1c1ccccc1O | 100 | 102 | 6 | 6
Cc1ccc(-c2noc(CNC(=O)CSc3ccccc3)n2)cc1 | 107 | 103 | -28 | -7
O=C1NC2(CCCC2)C(=O)N1Cc1cc(=O)n2ccsc2n1 | 97 | 98 | -7 | 46
O=[n+]1c2c(n([O-])c3cc(Br)ccc31)CCCC2 | 102 | 105 | -4 | 26
CCOC(=O)Nc1sc2c(c1C#N)CCCC2 | 104 | 107 | . | -2
Cc1cc(C)c(C#N)c(SCCC#N)n1 | 100 | 109 | 1 | 5
Cc1ccc(Nc2nc(-c3c(C)nc4ccccn34)cs2)c(C)c1 | 102 | 97 | -37 | .
C=CCn1nnnc1SCC(=O)Nc1ccc(OC)cc1 | 98 | 104 | 2 | 5
CCN1CCN(C(c2ccc(OC)cc2)C(O)C(=O)c2c[nH]c3ccccc23)CC1 (stereo not given) | 99 | 105 | -12 | 4
CC(C)(Oc1ccc(Cl)cc1)C(=O)NN | 101 | 107 | -2 | 0
O=C(O)CSCc1cccs1 | . | . | -15 | -8
O=C(Nc1nnc(C(F)(F)F)s1)C(Cc1ccccc1)N1C(=O)C2C3C=CC(C3)C2C1=O (stereo not given) | 104 | 103 | 6 | 2
CCn1c(Sc2nc(C)nc3scc(-c4cccs4)c23)n[nH]c1=O | 102 | 108 | -13 | 12
CSc1cccc(NC(=O)C2(S(=O)(=O)c3ccc(C)cc3)CC2)c1 | 102 | 105 | -2 | -1
c1ccc(Cn2c3c(c4ccccc42)CCc2nonc2-3)cc1 | 103 | 96 | -42 | 44
CCCCCCCCCCCCC/C=C/[C@@H](O)[C@H](CO)NC(=O)CCCCCCC | 102&101 | 101&101 | -1 | -20
CC1CCN(C(=O)c2ccccc2NC(=O)C(C)(C)C)CC1 | 103 | 104 | -16 | -17
COc1cc(C(=O)NN2CCN(C)CC2)cc(OC)c1OC | 102 | 102 | -9 | -2
CCOC(=O)c1cnn(C(=O)COc2ccc(C)c3c2CCC3)c1N | 106 | 114 | -8 | -5

Retrieved by structure from the list above, 5 records:
SMILES | PV pol inh | PV pol inh intensity | MenB inh | Mtb MbtI inh
c1ccc(Cn2c3c(c4ccccc42)CCc2nonc2-3)cc1 | 103 | 96 | -42 | 44
CCOC(=O)c1cnn(C(=O)COc2ccc(C)c3c2CCC3)c1N | 106 | 114 | -8 | -5
CCCCCCCCCCCCC/C=C/[C@@H](O)[C@H](CO)NC(=O)CCCCCCC | 102&101 | 101&101 | -1 | -20
CC1CCN(C(=O)c2ccccc2NC(=O)C(C)(C)C)CC1 | 103 | 104 | -16 | -17
COc1cc(C(=O)NN2CCN(C)CC2)cc(OC)c1OC | 102 | 102 | -9 | -2
